NPYLR7 agonist – activates Aedes aegypti NPYLR7 receptor | HEK293T NPYLR7/Galpha15, GCaMP6s calcium fluorescence | activation, % at 10 µM | 270,000 tested, 0.15% active | AID 1259423; in the data active = activation above about 40%;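 note: 0% = vehicle and 100% = reference agonist at the receptor; some compounds past the cut are filed as inactive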
NPYLR7 agonist max-min – also measured in NPYLR7 agonist; calls as there; activation, %; measured here: Max-Min RFU normalised activation; some inactives read as strong as hits;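 span of the calcium signal over five minutes; 0% = vehicle and 100% = native peptide agonist; compound fluorescence can raise it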
Numbers without * were called inactive; & = joins results of further samples.

SMILES	NPYLR7 agonist	NPYLR7 agonist max-min
CC1=C(C(=O)OCC(C)C)C(c2cccs2)N2C(=O)CCSC2=N1 (stereo not drawn)	5	2
O=C1CCN(CC(O)COc2ccccc2)c2cc3c(cc2CN1C1CC1)OCO3 (stereo not drawn)	10	16
COc1ccc(C2CC(=O)Nc3snc(C)c32)c(OC)c1 (stereo not drawn)	-2	-6
COc1ccc(OC)c(CC(=O)NC2CC(C)(C)Cc3c2cnn3-c2cccc(F)c2)c1 (stereo not drawn)	2	-2
Cc1ccc(-n2nnc(C(=O)Nc3ccc(F)cc3F)c2-n2cccc2)cc1	-4	-4
O=C(CSc1nc(=O)n(CCCN2CCOCC2)c2c1CCCC2)Nc1cccc2ccccc12	-2	-1
Cc1cc([N+](=O)[O-])cc(S(=O)(=O)NNC(=O)c2oc3ccccc3c2C)c1C	-4	-3
CN(C)c1ccc(Sc2nnc(N)s2)cc1	1	-2
Cn1c(CCC(N)=O)nn(CN2CCCc3c(F)cc(F)cc32)c1=S	7	6
Cc1ccc(CSc2nc3nccnc3c(=O)n2CCC(C)C)cc1	5	4
COc1ccccc1CNC(=O)c1cnc2cc(C(C)=O)[nH]c2c1	-2	-5
CN(C)CCCN(C(=O)CCS(=O)(=O)c1ccccc1)c1nc2c(F)cccc2s1	-2	-3
Cc1ccc(S(=O)(=O)Nc2ccc(-c3ccc4nnc(-c5ccncc5)n4n3)cc2)cc1	-10	-10
COc1ccc2c(c1)CCN2C(=O)NCC1(c2ccccc2C)CCOCC1	0	0
COc1ccccc1NC(=O)N(Cc1cccc(OS(=O)(=O)c2ccc(NC(C)=O)cc2)c1)Cc1ccco1	1	3
CCOc1ccc(NC(=O)N2CCC3(CC2)CNC(=O)C3)cc1	5	15
COc1ccc(CCNC(=O)c2cccnc2N2CCN(C(=O)CCC3CCCC3)CC2)cc1OC	18	9
Cc1nc(CNC(=O)[C@@H]2C[C@@H]3C=C[C@H]2C3)sc1C	0	-1
O=S(=O)(c1cccc(Br)c1)N1CCN(c2nnnn2-c2ccccc2)CC1	9	15
COC(=O)C(c1ccc(OC)cc1)C1C=CC(NC(=O)c2cc(Cl)ccc2F)C1 (stereo not drawn)	-1	-13
COC(=O)c1sccc1S(=O)(=O)NCC1(N2CCOCC2)CCCCC1	1	-6
O=C(C1CCC1)N1CCC(CCc2ccc(-c3ccccc3)cc2)CC1	2	7
CCCOCP(=O)(COCCC)COCCC	-2	4
Cc1ccc(C(=O)COC(=O)c2cc(C)nc3ccccc23)c(C)c1	6	5
CN(C)C(=O)C12CC3CC(CC(C3)C1)C2	7	5

Continued.
SMILES	NPYLR7 agonist	NPYLR7 agonist max-min
O=c1[nH]c(CSc2ccccc2)nc2c1oc1ccccc12	4	4
Cc1cc(C(F)(F)F)c(C#N)c(SCC(=O)NC(C)C)n1	15	7
Cc1ccsc1CN(Cc1ccc(F)cc1)C(=O)CN(CC1CCCO1)C(=O)Nc1ccc(Cl)cc1Cl (stereo not drawn)	-5	4
CCOC(=O)C1(CCOC)CCCN(Cc2cc(Cl)ccc2O)C1 (stereo not drawn)	3	0
O=C(c1ccccc1)C1CCN(Cc2cc3n(n2)CCNC3)CC1	9	5
COc1ccc(C(=O)N(Cc2ccc(OS(=O)(=O)c3ccc(F)cc3)cc2)Cc2ccco2)cc1	-2	14
CSC(N)=NC(=NS(=O)(=O)c1ccccc1)c1ccccc1	3	2
CCOC(=O)Cc1cc(=O)[nH]c(N=C(NC(=O)c2ccccc2)Nc2cccc(Cl)c2C)n1	2	0
COc1ccc(/C=C2\C=C(c3ccccc3)N(c3ccc(C(C)=O)cc3)C2=O)cc1Br	5	11
COc1ccc(NC(C)c2c(F)cccc2F)cc1OCC(N)=O (stereo not drawn)	1	1
COc1ccc(OCc2cc(C(=O)N(C)CCC3CCOCC3)no2)c(Cl)c1	14	-1
Cc1ccn2c(NC(=O)Cc3ccccc3)c(-c3ccc(F)cc3)nc2c1	-9	2
COc1ccc(CCN(C)C(=O)c2ccc(Br)cc2)cc1OC	20	-1
COc1cc(OC)cc(C(=O)N2CCN(c3cccc(F)c3)C(=O)C2C)c1 (stereo not drawn)	-3	-3
Cn1c(NNC(=O)c2ccc(Cl)cc2)cc(=O)n(C)c1=O	3	3
COc1cccc(OC)c1CNC(=O)c1ccc(C2CCNC2)cc1 (stereo not drawn)	21	7
CN(C)c1nc2c(c(=O)[nH]1)CCN(C(=O)C1(c3ccc(Cl)cc3)CCC1)C2	7	6
O[C@H]1[C@H](NCc2ccccn2)[C@H]2CO[C@H](O2)[C@@H]1N1CCN(c2ccccc2)CC1	3	-9
O=C(NCC(O)C1CCCC1)C1SCCc2ccccc21 (stereo not drawn)	9	5
O=C(c1ccc(SC(F)(F)F)cc1)N1CCc2c([nH]c3ccccc23)C1c1ccc([N+](=O)[O-])c(Cl)c1 (stereo not drawn)	-6	-4
CN1CCN(Cc2nc(Cc3ccccc3)no2)CC1c1ccccc1 (stereo not drawn)	12	-2
CC(NC(=O)Cn1cnc2scc(-c3cccs3)c2c1=O)c1ccc(F)cc1F (stereo not drawn)	4	1
Brc1ccc(-c2nc(-c3ccncc3)no2)o1	-3	-8
CC(C)C1CN(CC(N)=O)CCC(=O)N1CC1CC1 (stereo not drawn)	0	8
O=C1CCc2cc(C(=O)N3CCC(c4ccccc4)CC3)ccc2N1	11	7

Further results:
SMILES	NPYLR7 agonist	NPYLR7 agonist max-min
Cc1cnc(CNC(=O)C(C)(C)NC(=O)c2cccs2)cn1	9	0
CN1CCCC2(CCN(C(=O)c3cnc(Nc4ccccc4)nc3)C2)C1=O (stereo not drawn)	6	6
COc1cccc(-c2ccccc2NC(=O)C2CCN(Cc3cccc4cccnc34)CC2)c1	14	6
O=CNC(n1cnc2c(N3CCCCC3)ncnc21)C(Cl)(Cl)Cl (stereo not drawn)	-5	-10
O=C(CSc1nc2c(c(=O)n1CCc1ccccc1)SCC2)N1CCOCC1	0	-12
CCOc1ccc(C(=O)Nc2ccc(-c3nc4ccccc4o3)c(O)c2)cc1	-8	-12
C=CCNC(=O)c1ccccc1NC(=O)c1c(-c2ccccc2)noc1C	-7	-5
Cn1ccnc1C(O)C1CCN(C(=O)CCc2c[nH]c3ccccc23)CC1 (stereo not drawn)	-4	-12
CCOC(=O)c1nn(-c2ccc(C)cc2)c(=O)cc1OCc1cc(C)ccc1C	7	3
O=C1CC(C(F)(F)C(F)(F)C(F)(F)C(F)F)=Nc2ccccc2N1	2	2
CSc1ccccc1CNC(=O)C1(C)CCCCN1C (stereo not drawn)	6	2
O=C(CSc1nnc2ccc(-c3cccnc3)nn12)N1CCOCC1	-12	-4
O=C(CC1=C(c2ccccc2)CCC1=O)NCc1cccnc1-n1ccnc1	2	5
COc1cccc(Cc2nsc(N3CCN(C(=O)Nc4cc(C(F)(F)F)cc(C(F)(F)F)c4)C(C)C3)n2)c1 (stereo not drawn)	11	12
NC(=O)C(NC(=O)c1cccc(NC(=O)CC2SC(N3CCCCC3)=NC2=O)c1)c1ccccc1 (stereo not drawn)	-4	5
CCn1c(=O)c(C)nc2cc(C(=O)NC(c3ccccc3)C3CC3)ccc21 (stereo not drawn)	6	5
CN(Cc1ccnc2ccccc12)C(=O)C1CCC(=O)N(Cc2ccccc2F)C1 (stereo not drawn)	-1	-4
O=C(COc1ccccc1C(F)(F)F)N1CCNC1=O	9	7
COc1ccc(C(C2Sc3ncnn3C2=O)N2CCN(Cc3ccccc3)CC2)cc1 (stereo not drawn)	2	2
CCS(=O)(=O)N1CCN(c2nc(C)nc(C)c2Cc2cc(C)ccc2C)CC1	10	13
O=C(CCc1ccsc1)NCC(=O)Nc1ccc(F)c(F)c1	14	12
CN(CCc1ccccc1)C1CCCN(C2CCN(Cc3ccco3)CC2)C1 (stereo not drawn)	-4	-10
O=C(CC1CCCCC1)NNC(=O)C1CC1	7	13
Cc1c[nH]c(C(=O)N2CCC3(CC2)CC(C(=O)O)N(C)C3)c1 (stereo not drawn)	4	-1
CCOc1c(C)cnc2c1c(=O)n(CC(=O)N1CCCC1)c(=O)n2C	2	-1

Compound profiles (already shown). Order of screens: NPYLR7 agonist	NPYLR7 agonist max-min
`COc1ccc(C(C2Sc3ncnn3C2=O)N2CCN(Cc3ccccc3)CC2)cc1` (stereo not drawn) is entered as 2	2
`NC(=O)C(NC(=O)c1cccc(NC(=O)CC2SC(N3CCCCC3)=NC2=O)c1)c1ccccc1` (stereo not drawn) is entered as -4	5
`Cn1ccnc1C(O)C1CCN(C(=O)CCc2c[nH]c3ccccc23)CC1` (stereo not drawn) is entered as -4	-12

Of the compounds above, two have a nitro group on carbon:
SMILES	NPYLR7 agonist	NPYLR7 agonist max-min
Cc1cc([N+](=O)[O-])cc(S(=O)(=O)NNC(=O)c2oc3ccccc3c2C)c1C	-4	-3
O=C(c1ccc(SC(F)(F)F)cc1)N1CCc2c([nH]c3ccccc23)C1c1ccc([N+](=O)[O-])c(Cl)c1 (stereo not drawn)	-6	-4

Additional structures follow.
SMILES	NPYLR7 agonist	NPYLR7 agonist max-min
CC1=CS(=O)(=O)CC1Sc1n[nH]c(C)n1 (stereo not drawn)	9	3
COCCNC(=O)c1ccc(CSc2nc(-c3ccccc3)cc(N3CCN(c4ccccc4Cl)CC3)n2)cc1	3	10
COc1cccc(CN2CCn3nc(C(=O)N4CCC5(CC4)OCCO5)cc3C2=O)c1	16	25
COCC(=O)Nc1ccc(N(C)C)c(CN(CC2CCCO2)C(=O)c2ccco2)c1 (stereo not drawn)	-1	-1
CC(=O)N1CC(C)CN(C(=O)c2ccc(F)nc2)c2ccccc21 (stereo not drawn)	3	7
O=C(c1cccc(F)c1)N(CC(=O)N1CCc2sccc2C1COc1cccc(F)c1)Cc1ccco1 (stereo not drawn)	-1	5
Cc1cccc(Cn2ccnc2CN(C(=O)c2ccc(F)cc2)C2CCCCC2)c1	20	16
CCOC(=O)c1[nH]c2c([N+](=O)[O-])cc(OCC)cc2c1CCN1C(=O)c2ccccc2C1=O	-7	1
O=c1cc(CN2CCN(CCO)CC2)c2cc(O)c(-c3ccccc3)cc2o1	-2	-2
C=CCN(CC=C)C(=O)CSc1nnc(-c2cc(OC)cc(OC)c2)n1CC=C	14	10
Cc1cn(CC(=O)N2CCCC(O)(CN(C)C)C2)c(=O)[nH]c1=O (stereo not drawn)	1	-4
CNS(=O)(=O)Cc1ccc2[nH]cc(CCN(C)C)c2c1	-8&3&-4	-12&8&-4
CCN(CC)c1onc(-c2ccc(F)cc2)c1CN(CCN(C)C)C(=O)Nc1ccc(C)cc1	6	8
NC(=O)CSc1nnc(N2CCN(C(=O)CCc3ccccc3)CC2)s1	-1	0
COc1ccccc1N1CCN(C(C)C(=O)Nc2ccnn2C(C)C)CC1 (stereo not drawn)	18	16
CCc1nnsc1C(=O)Nc1cc(F)c(N2CCCC2)c(F)c1	4	3
CCC(C)n1c(C)cn2c3c(=O)n(CC(=O)OC)c(=O)n(C)c3nc12 (stereo not drawn)	2	3
O=C(NCC1CCN(c2ncccn2)CC1)C(=O)Nc1cccc(C(F)(F)F)c1	-7	-9
O=c1ccc(-c2ccco2)nn1CCNS(=O)(=O)c1ccccc1	6	4
COCC(=O)NC(C)c1nc2ccccc2[nH]1 (stereo not drawn)	9	14
COc1ccc(C)cc1CC(=O)Nc1ccccc1N1CCOCC1	6	3
N#Cc1ccc(C(=O)N(CCCN2CCOCC2)c2nc3ccc(F)cc3s2)cc1	-4	-9
O=S(=O)(NCCCn1ccc2ccccc21)c1ccccc1F	8	4
O=c1c(N=Nc2ccccc2)c(-c2ccc([N+](=O)[O-])cc2)[nH]n1-c1ccccc1	-2	0
O=C(C(=O)N1CCCC(CO)(Cc2ccccc2)C1)c1ccccc1 (stereo not drawn)	-16	-21

Overlap with the part before: two compounds, followed by the next part.
SMILES	NPYLR7 agonist	NPYLR7 agonist max-min
O=c1c(N=Nc2ccccc2)c(-c2ccc([N+](=O)[O-])cc2)[nH]n1-c1ccccc1	-2	0
O=C(C(=O)N1CCCC(CO)(Cc2ccccc2)C1)c1ccccc1 (stereo not drawn)	-16	-21
COCCN(Cc1ccc(OS(=O)(=O)c2ccc(F)cc2)cc1)S(=O)(=O)c1ccccc1	-7	8
CCn1ccc2cc(NC(=O)CN3CCCCCCC3=O)ccc21	3	2
Cc1nn(C)c2c1C(c1cc(F)ccc1-n1cccn1)CC(=O)N2 (stereo not drawn)	5	2
O=C(COc1ccc(Cl)cc1)N(Cc1ccco1)C1CCS(=O)(=O)C1 (stereo not drawn)	-7	-9
CCn1c(C)c(C(=O)CN(CCN2CCOCC2)S(=O)(=O)/C=C/c2ccccc2)c(C)c1C(=O)OC	-11	-2
CCn1ccnc1CN1CCC(CCC(=O)N2CCN(c3ccccc3)CC2)CC1	15	4
O=C1NC(Cc2cscn2)c2nc(NCc3ccccn3)ncc21 (stereo not drawn)	0	-2
Cc1ccccc1-n1ncc2c(C3CC3)nn(CC(=O)N3CC(C)OC(C)C3)c(=O)c21 (stereo not drawn)	11	9
CCNc1ccnc(N2CCN(Cc3ccc4c(c3)OCO4)CC2)n1	5	8
c1nc(NC2CCOC3(CCSC3)C2)c2ccsc2n1 (stereo not drawn)	-4&-1	-4
O=C(CSc1ccc2nc(-c3ccccc3)cn2n1)NCCc1ccccc1	-3	-5
COC(=O)[C@@H]1C[C@@H](NS(=O)(=O)Cc2cccc(Cl)c2)CN1C	6	3
CC(C)NC(=O)c1cc(-c2ccccc2F)nc2cc(C(C)(C)C)nn12	-1	4
COc1cn(CC(=O)Nc2cc(C)ccc2C)c(CSc2ncccn2)cc1=O	-2	-7
CCc1nc2ccc(C(=O)NC3CCN(C)CC3)cn2c1N(C)CC	7	-9
CNS(=O)(=O)CCNC(=O)[C@@]12CNC[C@@H]1CN(C)C2	11	7

Copied from the results shown (three entries):
SMILES	NPYLR7 agonist	NPYLR7 agonist max-min
COCCN(Cc1ccc(OS(=O)(=O)c2ccc(F)cc2)cc1)S(=O)(=O)c1ccccc1	-7	8
CCn1ccc2cc(NC(=O)CN3CCCCCCC3=O)ccc21	3	2
Cc1nn(C)c2c1C(c1cc(F)ccc1-n1cccn1)CC(=O)N2 (stereo not drawn)	5	2

Source: PubChem

Only part of the results is shown; rates above refer to the full screens.
